CDC25B-CDK2 inh = human CDC25B-CDK2/CyclinA binding inhibition | AID 1259370 | z-score (no concentration beside the values) | 94,000 compounds, 0.72% hits | HTRF CDC25B-CDK2/CyclinA binding, anti-His/anti-Flag; stronger effect = higher value;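 further: score is relative to mean and SD of negative controls; strong numbers were not always called active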
HIV TAR-Tat = HIV-1 TAR-Tat binding disruption; z-score (no concentration beside the values); HIV-1 TAR RNA, Tat peptide displacement FRET; stronger effect = higher value; AID 1259389; 100,000 compounds, 0.6% hits;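 further: score is relative to mean and SD of negative controls; some compounds called inactive have numbers as strong as hits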
Numbers without * were called inactive; / = not tested or not shown.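 How the source made its calls: active means z-score from 3 up in half or more of its runs; inactive means the rest.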 Random draw from the library. Share with any hit: about 0.87%.

Order of results: HIV TAR-Tat | CDC25B-CDK2 inh
[1] CCOc1cc(C2Nc3ccc4ncccc4c3C3=C2C(=O)CC(C)(C)C3)ccc1O (configuration not stated)
→ -2 | 0.35
[2] CCn1cc(C2=NOC(C(=O)Nc3cccnc3)C2)c(C)n1 (configuration not stated)
→ 0.34 | -0.6
[3] O=C(CN1C(=O)C2CCCN2c2ncc(Cl)cc21)N1CCN(c2ccccc2)CC1 (configuration not stated)
→ -1.5 | -0.82
[4] O=c1c2ccccc2n2c(-c3ccc(F)cc3)nnc2n1CCc1ccccc1
→ 1.9 | -0.05
[5] CCOc1ccccc1N1CCN(S(=O)(=O)c2ccc(Br)cc2)CC1
→ 1.7 | -0.81
[6] O=C(C1COc2cc(S(=O)(=O)N3CCc4ccccc43)ccc2O1)N1CCCCC1 (configuration not stated)
→ 1.1 | /
[7] COCCn1c(=O)c(C#N)cc2c(=O)n3cccc(C)c3nc21
→ 2.3 | -0.3
[8] O=C(Nc1cccc(-c2noc(C3CCC3)n2)c1)C1CC(=O)N(c2ccccc2)C1 (configuration not stated)
→ -1.4 | /
[9] CC(C)Cn1cc(NC(=O)NCCCN2CCCCC2)c2ccccc2c1=O
→ 2.1 | /
[10] O=C(COc1ccc2c(c1)C(=O)CC1(CCCCC1)O2)NC1CC1
→ / | 0.18
[11] CC(CC(=O)Nc1ccc(F)cc1)S(=O)(=O)c1ccc2c(c1)NC(=O)CS2 (configuration not stated)
→ -7.1 | /
[12] Cc1ccc(C)c(N2CCN(c3ncnc4nc[nH]c34)CC2)c1
→ 1.3 | -0.48
[13] CN(C)c1cc2c(cc1NS(=O)(=O)c1ccccc1)n(C)c(=O)n2C
→ 0.45 | -1.8
[14] Cn1c(-c2ccc(Cl)cc2)cnc1SCC(N)=O
→ 2.9 | /
[15] CC1(C)CC(=O)C2=C(C1)Nc1ccccc1N(C(=O)c1ccccc1)C2c1ccc([N+](=O)[O-])s1 (configuration not stated)
→ -1.4 | -1.5
[16] CCCCNC(=O)C(=O)Nc1ccc2nc3n(c(=O)c2c1)CCCCC3
→ / | -2.5
[17] Cc1ccc2onc(CNC(=O)Nc3cc(F)ccc3F)c2c1
→ 1.4 | /
[18] COc1ccc(S(=O)(=O)N2CCc3cc4ccc(OC)cc4nc32)cc1
→ 0.81 | -0.51
[19] COc1ccc(-c2nc(NC3CCCCC3)c3ccccc3n2)cc1
→ 2 | /
[20] COc1ccc(-c2nnn(CC(=O)O)n2)cc1
→ -0.16 | -1.2
[21] c1ccc(-n2ncc(-c3nn[nH]n3)n2)cc1
→ / | -0.54
[22] COc1ccc(-c2[nH]ncc2/C=C/c2cc(C(F)(F)F)[nH]c(=O)n2)cc1
→ 0.87 | -0.31
[23] COc1cccc(-c2noc3ncnc(NC4CCCC4)c23)c1
→ 0.33 | /
[24] CCCc1c(Cc2c(F)cccc2Cl)c(=O)oc2cc(OC(=O)COC)ccc12
→ / | -0.71
[25] OC(COc1ccccc1)Cn1cnc2ccccc21 (configuration not stated)
→ 2.1 | -0.09
[26] Cc1cc(NS(=O)(=O)c2cc3[nH]c(=O)c(=O)[nH]c3cc2C)ccc1Br
→ 0.36 | /
[27] CN(C)CCNC(=O)c1cc2n(n1)CC(C)(C(=O)NC1CCCC1)N(C)C2=O (configuration not stated)
→ -1.9 | /
[28] CCCCC12CN(C(=O)CC)CC(C)(CN(C(=O)CC)C1)C2=O
→ 0.32 | -0.97
[29] O=C1c2cccnc2C(=O)N1Cc1ccc(S(=O)(=O)N2CCCc3ccccc32)s1
→ -0.43 | /
[30] c1cc2c(cc1CN1COc3cc4c(cc3C1)OCO4)OCO2
→ / | -2.6
[31] CC(C)Oc1ccc(C(=O)Nc2nnc3n2CCS3)cc1
→ 0.79 | /
[32] FC(F)(F)c1cnc(N2CCN(C(=S)NC3CC4C=CC3C4)CC2)c(Cl)c1 (configuration not stated)
→ / | -0.81
[33] Cc1c(C(=O)Nc2nc3c(s2)CC(C)CC3)oc2ccc(F)cc12 (configuration not stated)
→ 1.6 | -0.83
[34] CC(C)Oc1ccc(N2CC(O)=C(c3nc4ccccc4s3)C2=N)cc1
→ 2.3 | -1.2
[35] CCc1ccc(C2c3c(oc4ccccc4c3=O)C(=O)N2c2nc(C)c(C(=O)OC)s2)cc1 (configuration not stated)
→ 0.97 | -0.63
[36] Cc1sc2ncnc(Oc3ccc4c(C)cc(=O)oc4c3)c2c1C
→ / | 0.9
[37] OC1CCN2Cc3ccccc3N=C12 (configuration not stated)
→ 1.8 | /
[38] COc1cc(C2=N/C(=C/c3ccccc3OC(=O)c3ccc(Cl)cc3)C(=O)O2)cc(OC)c1OC
→ / | -1.9
[39] O=C(CCC(=O)N1CCOc2ccccc21)NCC1CCCO1 (configuration not stated)
→ 0.31 | -1.9
[40] O=C(NCCCO)C(=O)NCc1n[nH]c(=O)c2ccccc12
→ 1.6 | /
[41] Nc1ccccc1SC1CC(=O)N(c2ccc3c(c2)OCCO3)C1=O (configuration not stated)
→ / | -2.4
[42] CCc1nn(CC(=O)NC2CC2)c(=O)c2cc3ccccc3n12
→ 1.2 | -0.15
[43] COc1ccc2cc(C(C)C(=O)NCc3ccccc3)ccc2c1 (configuration not stated)
→ / | -4
[44] COC(=O)c1c(C)oc2ccc(O)c(CN3CCCCC3C)c12 (configuration not stated)
→ -1.4 | -1.1
[45] Cc1noc(C)c1S(=O)(=O)N1CCCN(c2ccc(C(F)(F)F)cn2)CC1
→ / | -0.67
[46] CCSC1=C(C#N)C(c2ccccc2C)CC(=O)N1 (configuration not stated)
→ -0.05 | -1
[47] O=C(NCc1ccc2c(c1)OCO2)c1cc(-c2cccnc2)nc2ccc(Br)cc12
→ 1.7 | /
[48] Cc1ccc2oc(C(F)(F)C(F)F)cc(=O)c2c1
→ 2.5 | -1.4
[49] Cc1cccc(C(=O)OCc2cc(=O)n3nc(C4CC4)sc3n2)c1
→ -0.21 | /
[50] O=C1CCC(=O)N1SC1=C(C(F)(F)F)C(F)(F)C(F)(F)C1(F)F
→ / | -1.7
[51] CC1=C(C#N)C(c2ccc([N+](=O)[O-])cc2[N+](=O)[O-])C(C#N)=C(C)N1
→ / | -0.61
[52] C#CCn1c(Cc2ccccc2)nc2ccccc21
→ 0.43 | 1.2
[53] CCOC(=O)c1cn(CC(=O)NC2CCCCC2)c2nc(C)ccc2c1=O
→ 0.53 | /
[54] CS(=O)(=O)c1ncc(Cl)c(C(=O)Nc2ccc(S(=O)(=O)N3CCCCC3)cc2)n1
→ 1.4 | -6.3
[55] COc1ccc(-c2onc(C)c2C)cc1S(=O)(=O)N(C)c1ccc(C)c(C)c1
→ 0.08 | /
[56] CCc1ccccc1N1CSC2=C(C#N)C(c3ccccc3)CC(=O)N2C1 (configuration not stated)
→ -1.2 | 6.9*
[57] O=C(Nc1ccc2c(c1)OCCO2)Nc1nc2ccccc2s1
→ 1.5 | -0.89
[58] Cc1ccc2c(c1)-c1c(cnn1CC(=O)NC(C)c1ccc3c(c1)OCCO3)CO2 (configuration not stated)
→ 0.39 | -0.61
[59] Cc1oc(-c2cccc(Br)c2)nc1CSc1nc2ncccc2o1
→ 0.22 | /
[60] Cc1ccc(CNS(=O)(=O)c2ccc(-c3cnc(C4CC4)o3)cc2)o1
→ 1.2 | /

(listing goes on)
Order of results: HIV TAR-Tat | CDC25B-CDK2 inh
[61] CC(=O)N1c2ccc(S(=O)(=O)N3CCCC(C(=O)N4CCOCC4)C3)cc2CC1C (configuration not stated)
→ 1.1 | /
[62] Cc1nccnc1-c1ccn[nH]1
→ / | -1.4
[63] CN(C)CCNCc1cccc(Oc2nnnn2-c2ccccc2)c1
→ 0.01 | /
[64] CNC(=O)CCC(=O)N1CC2CCCN2c2ccccc21 (configuration not stated)
→ -3.4 | /
[65] O=C(COc1ccccc1)Nc1c(C(=O)N2CCN(c3ccccn3)CC2)oc2ccccc12
→ 1.3 | /
[66] CCCCC12CN3CC(C)(CN(C1)C3c1ccc(C)cc1)C2=O (configuration not stated)
→ 0.21 | -1.4
[67] CCOC(=O)N1CCC2(CC1)OC(=O)C(C)=C2C(=O)NCCCN1CCCCC1C (configuration not stated)
→ 1.8 | /
[68] COc1cccc(OCc2nc3ccccc3n2CCOc2ccccc2)c1
→ 1.4 | 2.7
[69] COc1ccc(C2C3=C(Nc4ncnn42)c2ccccc2OC3c2ccc(SC)cc2)cc1OC (configuration not stated)
→ 1.5 | /
[70] O=C(NCCCn1ccnc1)Nc1ccc(Cl)cc1
→ 0.77 | -1.1
[71] COc1cccc(OC)c1C(=O)Nc1ccc(C(C#N)Cc2ccc(N(C)C)cc2)cc1 (configuration not stated)
→ / | -2.9
[72] CCCCn1c(CCNC(=O)C(C)(C)C)nc2ccccc21
→ / | 0.64
[73] CCn1cc(S(=O)(=O)c2ccc(C)c(C)c2)c(=O)c2cc(F)c(N3CCOCC3)cc21
→ -0.17 | /
[74] C=CCNC(=O)C(=O)c1c(C)n(C)c2ccccc12
→ / | -1.9
[75] Cc1cc(C)n(-c2nc3c(c(=O)[nH]c(=O)n3C)n2Cc2cccc(Br)c2)n1
→ / | -0.42
[76] CC(C(=O)O)N1c2cccc3cccc(c23)S1(=O)=O (configuration not stated)
→ -2.6 | -0.4
[77] CCOC(=O)N1CCN(C(=O)CSc2nnc(-c3ccc4c(c3)OCCO4)o2)CC1
→ -0.04 | -3.5
[78] c1ccc(-c2nnc3sc(-c4ccc5c(c4)OCCO5)nn23)cc1
→ -0.37 | -0.28
[79] Cc1ccc(-c2noc(-c3cc(-c4ccco4)n[nH]3)n2)cc1
→ 1 | /
[80] Cc1ccc(Nc2ncnc3onc(-c4cc(F)cc(F)c4)c23)cc1
→ 0.84 | /
[81] Cc1nc(-c2csc(S(=O)(=O)N3CCN(C(=O)c4ccco4)CC3)c2)no1
→ -0.02 | /
[82] COCCNC(=O)c1cc2n(n1)CC(C)(C(=O)NC1CCCC1)N(C)C2=O (configuration not stated)
→ -1.1 | /
[83] Cc1nn(-c2nc3ccccc3s2)c2c1C(c1cc(Br)cs1)CC(=O)N2 (configuration not stated)
→ 1.9 | /
[84] CCN(CC)C(=O)CN1C=NS(=O)(=O)c2ccccc21
→ 0.44 | /
[85] CCC(Nc1c(-c2ccc(C(C)C)cc2)c(=O)c1=O)c1cccs1 (configuration not stated)
→ 0.72 | /
[86] O=C(O)CCCc1nc2ccccc2[nH]1
→ 1 | 0.64
[87] CCCNC(=O)CSc1nc(C2CCCC2)nc2c1c(=O)n(C)c(=O)n2C
→ 0.29 | /
[88] COc1cc(C2C=C(C(=O)O)Nc3nnnn32)ccc1OCc1ccccc1 (configuration not stated)
→ -0.02 | /
[89] COc1cc(OC)cc(C(=O)N2CCC3(CC2)Nc2cccnc2NC3=NC2CCCCC2)c1
→ 0.88 | /
[90] CN(Cc1ccco1)S(=O)(=O)C1CCS(=O)(=O)C1 (configuration not stated)
→ -0.25 | -1.2
[91] COc1ccc(OC)c(CNc2ncnc3scc(-c4ccc(Cl)cc4)c23)c1
→ 0.52 | /
[92] COCCN1C(=O)c2oc3ccccc3c(=O)c2C1c1cccc(O)c1 (configuration not stated)
→ 0.67 | 0.7
[93] COc1ccc(-c2noc(CC(=O)O)n2)cc1
→ 0.2 | -0.58
[94] Cc1cc2nc(C)n(CC(C)C)c2cc1C
→ 1.1 | -0.39
[95] CCOc1ccc(OCC)c(NC2c3ncccc3C(=O)N2c2ccccc2)c1 (configuration not stated)
→ 1.2 | /
[96] CCCCCn1c(CN2CCCCC2)nc2c1c(=O)n(C)c(=O)n2C
→ 1.2 | 0.93
[97] CCCCCn1c(CCNC(=O)C(C)(C)C)nc2ccccc21
→ 0.79 | -0.32
[98] Cc1cc(-c2ccc(S(=O)(=O)NCc3ccco3)s2)on1
→ -0.07 | /
[99] CC(=O)C1=C(C)NC(=O)NC1c1ccco1 (configuration not stated)
→ / | -0.24
[100] COc1ccc(-c2ccc(NS(=O)(=O)c3cc(C)c(OC)cc3C)cc2)nn1
→ 0.38 | /
[101] CCCCNC(=O)C1CCC(Cn2c(=O)c3sccc3n(CCC)c2=O)CC1 (configuration not stated)
→ -0.87 | /
[102] OC(c1ccccc1)c1nc2ccccc2n1CCOc1ccccc1 (configuration not stated)
→ 1 | -0.72
[103] CCC(C)(C)NC(=O)C1CCN(S(=O)(=O)c2ccc3c(c2)CCCN3C(=O)C2CCC2)CC1
→ 0.27 | /
[104] CC(=O)N1CC(C)Sc2ccc(S(=O)(=O)N(C)c3ccc(Br)cc3)cc21 (configuration not stated)
→ 0.89 | /
[105] CCOc1cc2c(cc1OCC)C1CC(=O)N(c3ccc(F)cc3F)C(=O)N1CC2 (configuration not stated)
→ 0.77 | /
[106] CCCn1nnc2cc(S(=O)(=O)N3CCCCC3C(=O)O)ccc21 (configuration not stated)
→ 1.8 | -0.06
[107] CC1Cc2ccccc2N1C(=O)CCS(=O)(=O)c1ccc2c(c1)oc(=O)n2C (configuration not stated)
→ 2 | /
[108] Cc1ccc(Nc2nc(N)c([N+](=O)[O-])c(NCC3CCCO3)n2)cc1C (configuration not stated)
→ 0.36 | /
[109] O=C(Nc1ccc2c(c1)OCCO2)c1cc(CN2CCOCC2)on1
→ 0.5 | /
[110] O=C(c1cccn2c(=O)c3c4c(sc3nc12)CCCC4)N1CCN(c2ccccc2F)CC1
→ -0.61 | /
[111] CCS(=O)(=O)CCSc1nc(-c2cccs2)cc(-c2ccccc2)c1C#N
→ / | -35
